H5N1 CPE: MDCK cell protection from H5N1 avian flu. inhibition, % at 50 µM. cytopathic effect, luminescence, 72 h; active compounds read high; no value below 0 was filed and about half of the inactive calls have no number; reference of the scale not given here. 0.07% of 96,000 active; in the data active = inhibition above about 25%
* marks the source's active call; other numbers are inactive results; i = inactive. These rows are one share of the data; the hit share may differ from the screen's.

smiles	H5N1 CPE
COC(=O)c1cc(Br)c(=O)n(Cc2ccc(C(=O)O)cc2)c1	1.1
COc1ccc(CN2C(=O)c3cccnc3C2Nc2cc(Cl)ccc2OC)cc1 (configuration not stated)	1.4
Cc1cc2nnc(SCc3ccccc3)n2c(N)n1	0.5
CCN(CCCNC(=O)C1CCN(S(=O)(=O)N2CCC3(CC2)OCCO3)CC1)c1ccccc1	i
CCN1C(=O)/C(=C/N(C(C)=O)c2ccccc2)N(c2ccccc2)C1=S	0.6
CCn1cc(C(=O)N2CCOCC2)c(=O)c2cc(S(=O)(=O)N(C)C3CCCCC3)ccc21	i
Cc1cc(Cl)ccc1Oc1ncnc2oc(-c3ccccc3)cc12	i
COc1ccccc1N1CCN(Cc2cc(=O)n3ccsc3n2)CC1	i
CCOC(=O)N1CCC(n2c(SCC(=O)N3CCCC3)nc3ccccc3c2=O)CC1	0.7
CC(C)c1nc(SCC(=O)NCc2ccccc2)n[nH]1	i
Cc1cc(OCCN2CCCCC2)nc2ccccc12	i
Cc1ccccc1Cn1ccc(-c2ccc3c(c2)OCO3)n1	0.7
Cc1ccc(C2CCN(C(=O)Nc3ccccc3)C2)cc1 (configuration not stated)	0.8
CCC(C)(C)NC(=O)Cc1ccc(OC)c(OC)c1	1.1
O=C(Nc1nccs1)c1ccc(COc2ccc(Cl)cc2)o1	i
CCc1nnc(NC(=O)CC(CN(C)S(=O)(=O)c2ccccc2)c2ccccc2)s1 (configuration not stated)	1.9
COc1ccc(NC(=O)COC(=O)[C@@H]2CCCN2C(=O)c2cccs2)cc1	0.1
O=C(NCCO)c1cccc(Cl)c1	i
COc1ccc(C2SC[C@@H](C(=O)O)N2C(C)=O)cc1 (some centres not stated)	i
CC(=O)Nc1ccc2oc(-c3ccccc3Br)nc2c1	0.1
CCOC(=O)c1ccc(NC(=O)CSc2nc(NC(=O)c3ccccc3)c3c(C)c(C)oc3n2)cc1	i
COC(=O)c1cc(Br)c(=O)n(CCN(C(C)C)C(C)C)c1	2.4
Cc1ccc(NC(=O)C2CCN(S(=O)(=O)c3c(C)[nH]c(=O)[nH]c3=O)CC2)cc1	0.8
Cc1nn(Cc2ccc(C(=O)Nc3ccc(C(=O)OC(C)C)cc3)o2)c(C)c1Cl	i
CC1(C)Cc2c(sc3c2c(=N)n(Cc2ccco2)c(=O)n3CC(=O)Nc2ccccc2)CO1	i
CCCCNC(=O)N1CCOCCOCCN(C(=O)NCCCC)CCOCCOCC1	i
Cc1ccc(C)c(NS(=O)(=O)c2cc(C(=O)Nc3ccccc3-c3ccccc3)ccc2C)c1	i
CC1CN(C(=O)CN2C(=O)c3ccccc3S2(=O)=O)CC(C)O1 (configuration not stated)	1.0
O=C(CSc1ncnc2c1cnn2-c1ccccc1)Nc1ccccc1	1.1
COc1ccc(NC(=O)CN2CCN(C3c4ccccc4-c4ccccc43)CC2)cc1	2.0
O=C(CNC(=O)c1ccco1)Nc1cc(Cl)ccc1N1CCOCC1	i
O=C(CSc1ncnc2sc3c(c12)CCCCC3)NCc1ccco1	1.7
Cc1ccc(C2NC(=O)c3c(sc4c3CCN(C)C4)N2)o1 (configuration not stated)	0.8
Clc1ccc(Cn2nnc(-c3ccc(CN4CCOCC4)cc3)n2)cc1	i
COc1ccc(N/C(N)=N/c2nc(CSc3ccc(C)cc3)cc(=O)[nH]2)cc1	0.3
COC(=O)c1ccc(NC(=O)CN2CCCC2)cc1	0.2
O=C(c1cnc2n(c1=O)CCS2)N1CCN(C(c2ccccc2)c2ccc(Cl)cc2)CC1 (configuration not stated)	i
CSCCC(NC(=O)c1ccco1)C(=O)NCc1ccc(F)cc1 (configuration not stated)	0.2
CCc1ccc(C(=O)NC2CCCCC2)s1	i
O=C(CC1SC2=NCCN2C1=O)Nc1ccccc1 (configuration not stated)	i
CN(C)S(=O)(=O)c1ccc(NC(=O)c2cc(F)c(F)cc2Cl)cc1	i
CCN(CC)S(=O)(=O)c1ccc(-c2nnc(SC)o2)cc1	i
CS(=O)(=O)N1CCCC(C(=O)NCc2ccco2)C1 (configuration not stated)	1.0
C(=C\c1ccccc1)/CSc1nnc(-c2ccccc2)n1Cc1ccco1	i
Cc1ccccc1S(=O)(=O)Cc1ccc(C(=O)N2CC(C)CC(C)C2)o1 (configuration not stated)	0.9
CC(C)NC(=O)N(O)C1N(Cc2ccc3c(c2)OCO3)C(=S)SC1(C)C (configuration not stated)	i
CC(=O)Nc1ccc(Cl)c(C(N)=O)c1	0.2
CC(C)CNC(=O)c1cccc(NC(=O)c2ccc(NC(=O)c3ccco3)cc2)c1	i
COc1cccc(-n2nnnc2SCC(=O)c2ccc(NC(C)=O)cc2)c1	0.4
Cc1noc(C)c1S(=O)(=O)N(CC(=O)N1CCc2ccccc21)c1ccc(C(C)C)cc1	0.1

Some of the entries so far, with each value named:
Structure: CC(C)NC(=O)N(O)C1N(Cc2ccc3c(c2)OCO3)C(=S)SC1(C)C (configuration not stated)
  H5N1 CPE = i
Structure: CC(=O)Nc1ccc(Cl)c(C(N)=O)c1
  H5N1 CPE = 0.2
Structure: CC(C)CNC(=O)c1cccc(NC(=O)c2ccc(NC(=O)c3ccco3)cc2)c1
  H5N1 CPE = i
Structure: COc1cccc(-n2nnnc2SCC(=O)c2ccc(NC(C)=O)cc2)c1
  H5N1 CPE = 0.4

Carrying on:
smiles	H5N1 CPE
COc1ccc(Br)cc1S(=O)(=O)N(CC(=O)N1CCOCC1)c1ccccc1	1.9
CCCCn1c(CNC(=O)CC)nc2ccccc21	i
C/C(CC(O)c1ccc2ccccc2n1)=N/O (configuration not stated)	0.4
COCC(=O)Nc1sc2c(c1C(=O)OC)CCCC2	4.2
N#CCc1ccc(NC(=O)Nc2cccc(Cl)c2)cc1	i
c1ccc(-c2cc3c(nn2)CCc2nonc2-3)cc1	0.8
O/N=C1\CC/C(=N\O)c2nn(-c3ccccc3Cl)nc21	4.3
O=C1N=C2SCCN2/C1=C\c1ccccc1Cl	i
O=C(CN1C(=O)CSc2ccccc21)NCCC1=CCCCC1	0.1
COc1ccc(CN(CC(=O)NCC2CCCO2)C(=O)CNS(=O)(=O)c2ccc(C)cc2)cc1 (configuration not stated)	i
COc1ccc(CC(NC(C)=O)C(=O)N2CCN(C(=O)Nc3ccc(Cl)cc3)CC2)cc1OC (configuration not stated)	i
CCOc1ccccc1N(CC(=O)OC)S(C)(=O)=O	i
O=C(CCSc1ccccc1)N1CCOCC1	0.9
Cc1cc(NS(=O)(=O)c2ccc(NC(=O)c3ccco3)cc2)nc(C)n1	0.3
CCOc1ccccc1NC=C1C(=O)OC2(CCCCC2)OC1=O	i
CC1Cn2c(nnc2-c2ccccc2O)S1 (configuration not stated)	0.2
CCOC(=O)c1cccnc1SC(CC)C(=O)NCc1ccco1 (configuration not stated)	2.4
O=C(CSC1=NCCN1)NC1CCCCCC1	0.5
O=C(NCC1CCCO1)c1ccc(Cl)c(F)c1F (configuration not stated)	0.2
COc1ccc(C(=O)n2nc(C)cc2Nc2ccccc2)cc1	i
COc1cc(/C=N/N2CCN(C3c4ccccc4-c4ccccc43)CC2)ccc1O	i
Cc1ccccc1NS(=O)(=O)c1cc(C(=O)NCCSC2CCCCC2)ccc1C	3.6
CCCOc1ccccc1C(=O)N(Cc1cccs1)C1CCS(=O)(=O)C1 (configuration not stated)	2.2
Cc1nc(SC2CC(=O)N(c3ccc([N+](=O)[O-])cc3)C2=O)nc2c1CCCC2 (configuration not stated)	i
O=C(CCN1C(=O)c2ccccc2C1=O)Nc1ccccc1C(=O)N1CCOCC1	0.7
O=c1c(Cc2ccc(F)cc2)c(O)ccn1C1CCCCC1	i
S=C(NCCSCc1c(Cl)cccc1Cl)Nc1ccccc1	i
COC(=O)CC1=Nc2ccccc2NC(=O)C1	0.9
CC1Oc2ccccc2N(Cc2ccccc2F)C1=O (configuration not stated)	i
COc1ccc(NC(=O)Nc2ccc(OCC(=O)N3CCOCC3)cc2)cc1OC	i
CCOC(=O)CC(=O)CSc1nc(N)c(C#N)c(-c2ccc(F)cc2)c1C#N	0.2
COc1ccc(Oc2ccccc2/C=C/C(=O)O)cc1	0.1
O=C(c1ccc(CNc2c(N3CCCC3)c(=O)c2=O)cc1)N1CCc2ccccc2C1	0.8
CC(=O)Nc1c(C(=O)N2CCCCCC2)cnn1-c1ccccc1	i
COC(=O)[C@@H](NC(=O)NCc1cccs1)C(C)C	0.3
COc1ccc(F)cc1S(=O)(=O)N1CCCN(S(=O)(=O)c2cc(F)ccc2OC)CC1	2.3
CN(C)CCNC(=O)COc1cccc(Cl)c1	i
Cc1ccc(NC(=O)Cn2nc([N+](=O)[O-])c(Br)c2C)cc1C	0.1
O=[N+]([O-])c1cccc(-c2nc(-c3ccncc3)no2)c1	0.5
CCS(=O)(=O)CCSc1nc2c(cc1C#N)CCCC2	1.1

Sorted by count of non-hydrogen atoms (high to low): 5 of the compounds above.
smiles	H5N1 CPE
O=C(c1ccc(CNc2c(N3CCCC3)c(=O)c2=O)cc1)N1CCc2ccccc2C1	0.8
CCOC(=O)CC(=O)CSc1nc(N)c(C#N)c(-c2ccc(F)cc2)c1C#N	0.2
CC(=O)Nc1c(C(=O)N2CCCCCC2)cnn1-c1ccccc1	i
CCS(=O)(=O)CCSc1nc2c(cc1C#N)CCCC2	1.1
COC(=O)[C@@H](NC(=O)NCc1cccs1)C(C)C	0.3

Carrying on.
smiles	H5N1 CPE
Cc1ccccc1-c1nc(CS(=O)(=O)CC(=O)N2CCc3ccccc3C2)c(C)o1	i
O=C(c1ccc2c(=O)n(C3CCCC3)c(=S)[nH]c2c1)N1CCN(C2CCCCC2)CC1	i
Cc1onc(-c2ccccc2Cl)c1C(=O)Nc1nc2c(s1)CCCC2	i
CN(Cc1c(F)cccc1Cl)c1ccc(S(=O)(=O)N2CCOCC2)cn1	0.3
Cc1sc2nc(C3CC3)nc(SCC(=O)N3CCc4ccccc4C3)c2c1C	0.9
Cc1nn2c(=O)cc(COC(=O)c3ccc(S(=O)(=O)N4CCCCC4)cc3)nc2s1	0.8
COn1c(SCC(N)=O)nc2ccccc2c1=O	0.2
O=S(=O)(CCc1ccccc1)N1CCOCC1	0.8
COc1ccc(CNC(=O)COC(=O)c2cc(-c3cccs3)nc3ccccc23)cc1OC	i
Cc1ccc(N2CCN(CC(=O)Nc3c(C(=O)C4CC4)oc4ccccc34)CC2)cc1	0.1
CC1(C)OC(=O)N(c2ccccn2)C1(C)O (configuration not stated)	i
Cc1ccc(S(=O)(=O)N2CCC(C(=O)Nc3nnc(C45CC6CC(CC(C6)C4)C5)s3)CC2)cc1	0.7
Cc1cccc(NC(=O)c2sc(NC(=O)c3ccco3)c(C#N)c2C)c1C	i
CC(=O)c1nc(N2C(=O)CC(Cc3cccc(C)c3)C2=O)sc1C (configuration not stated)	i
O=C1CSC(=Nc2ccc(O)cc2)N1c1ccc(O)cc1	i
O=C(CCn1c(=O)[nH]c2ccccc2c1=O)N1CCN(c2cccc(C(F)(F)F)c2)CC1	2.2
O=C(NCc1ccco1)c1cc2cc3ccc(Cl)cc3nc2o1	i
CC12CCC(=O)N1C(C(=O)O)Cc1c2[nH]c2ccccc12 (configuration not stated)	0.7
CCN(CC)S(=O)(=O)c1cccc(C(=O)OCC(=O)c2ccc3c(c2)NC(=O)CO3)c1	i
Cc1cc(C(=O)Nc2nc3c(C)cccc3s2)c(C)o1	i
COc1ccc(CN(C(=O)CSc2nnc(-c3ccc(F)cc3)o2)c2ccc(F)cc2)cc1	i
CCn1c(O)c(C=NC2CCCC2)sc1=S	1.0
O=C(Nc1ccc(-c2nc3ncccc3o2)cc1)c1ccc(Br)o1	i
Cc1cc(=S)cc(C)n1CCCn1ccnc1	0.4
COC(=O)C(/C=N/OCc1ccc([N+](=O)[O-])cc1)NC(=O)c1cccc(Cl)c1 (configuration not stated)	i
COc1ccc(S(=O)(=O)NCCC(C)C)cc1OC	i
N#CC(C#N)=Cc1cn(-c2ncc(C(F)(F)F)cc2Cl)c2ccccc12	i
CC(C)Cc1nc2oc3c(Cl)ncnc3c2c2c1CCC2	i
COC(=O)CC(N)c1ccc(OC)c2ccccc12 (configuration not stated)	i
CC1=C(C(=O)Nc2ccccc2C)C(c2ccccc2)NC(=O)N1 (configuration not stated)	i
CCOc1ccc(C(=O)CCc2nc3ccccc3s2)cc1	3.2
Cc1[nH]n2c(=O)c(C#N)c(-c3ccccc3)nc2c1-c1ccccc1	i
CC(=O)Nc1cccc(NC(=O)CSc2ccc(C(F)(F)F)cc2[N+](=O)[O-])c1	i
OCCNc1ncnc2c1ncn2Cc1ccccc1	0.3
COC(=O)Cc1cc(OC)c(OC)cc1Cc1cc(OC)c(OC)cc1CC(=O)OC	1.2
CC(C)c1[nH]c(=O)c(C#N)c2c1COC(C)(C)C2	i
O=C(NNC1=NCCC1)c1cccc(Br)c1	i
CCCCN1C(=O)CC(Nc2ccc(CC)cc2)C1=O (configuration not stated)	i
Cc1cc(C)c(NC(=O)CCCN2CCN(C)CC2)c(C)c1	i
COc1ccc(CCNC(=O)CC(NS(=O)(=O)c2ccc(NC(C)=O)cc2)C(C)C)cc1OC (configuration not stated)	i
O=C(O)CC(C(=O)NCc1ccccc1)C1CCCO1 (configuration not stated)	i
Cc1nc(-c2ccccc2)sc1C(=O)/C=C/c1ccc(Cl)cc1	3.5
COC(=O)c1sc2nc3c(cc2c1N)C(=O)CC(C)(C)C3	i
